# Screening data as filed in PubChem BioAssay.
# Sa RN4220 lethal: kills Staphylococcus aureus RN4220; inhibition, % (no concentration beside the values); 330,000 tested, 0.33% active; S. aureus RN4220 growth, OD600, 16 h; AID 1259311;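 active = z-score of -3 or lower and OD600 up to 0.18 on both plates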;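 note: plate controls were untreated cells for no effect and reference antibiotic for full effect; stock transfer was 100 nL into about 80 µL; one replicate is shown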
# Mtb hypoxia rep: reduces hypoxia-regulated biosensor signal in M. tuberculosis; fluorescence inhibition, % (test concentration not listed); 300,000 tested, 0.1% active; AID 1159583; M. tuberculosis hypoxia-regulated fluorescent reporter, fluorescence;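 active = 35 to 45% if threefold the growth effect, above 45% if 1.5-fold the growth effect; inactive = the rest, general growth blockers included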;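 note: wells of about 50 µL received 100 nL stock; 0% = vehicle wells and 100% = reference inhibitor wells; whole bacteria with a GFP reporter of the hypoxia response; strong numbers were not always called active; many hits fall short of the cut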
# Sa ugtP lethal: growth inhibition of S. aureus ugtP deletion strain; S. aureus RN4220 ugtP deletion, OD600 growth, 16 h; some inactives read as strong as hits; growth inhibition, % (concentration not given with the values); 330,000 tested, 0.54% active;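 active = z-score under -3 and OD600 up to 0.15 on both plates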;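 note: plate controls were untreated wells for no effect and antibiotic for full effect; wells of about 80 µL received 100 nL stock; the first replicate is given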
# PrP UTR inh: inhibition of PrP 5' UTR reporter expression; inhibition, % (no concentration beside the values); cell-based PrP 5' UTR mRNA reporter, plate reader; 340,000 tested, 0.35% active;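 active = every replicate at 50% or more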;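 note: 0 = median of the neutral control wells; tested in H4 reporter cells; numbers are from one replicate; inactives centre near -14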
# Autofluor counter: counter-screen for toxin protease inhibitors: compound fluorescence; 360,000 tested, 3.1% active; compound autofluorescence counterscreen, microsphere flow cytometry; hits give high values; fluorescence intensity (concentration not given with the values); AID 624483;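 active = at least 3 SD above the mean of all compounds, about 16000 in these data; inconclusive = too few beads counted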;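 note: 100 nL of 1 mM stock went into each well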
# BJeLR lethal: kills HRASV12-expressing BJeLR cells; BJeLR (HRASV12) viability, CellTiter-Glo ATP luminescence, 48 h; reference of the scale not given here; inhibition, % (test concentration not listed); 300,000 tested, 0.17% active;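 active = replicate mean above 50%; inconclusive = above 50% but judged a plate artefact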;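 note: 50 nL library stock added to about 25 µL; numbers are from one replicate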
# Mtb hypoxia rep growth: second read-out of Mtb hypoxia rep, no call of its own (marks repeat the call); growth inhibition, %; measured here: M. tuberculosis growth (absorbance);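 0% = vehicle and 100% = reference antibiotic; read after six days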
# Numbers without * were called inactive; ? = inconclusive; · = not tested or not shown.
SMILES,Sa RN4220 lethal,Mtb hypoxia rep,Mtb hypoxia rep growth,Sa ugtP lethal,PrP UTR inh,Autofluor counter,BJeLR lethal
Cc1cc2cc(CNC(=O)NC3CCCCC3)ccc2[nH]1,3.6,-3,17,-4,-28,2837,1
Cc1cc(C)n(C(=O)C(C)N2C(=O)c3ccccc3C2=O)n1 (stereo not given),3.0,8,5,5,-14,9960,4
O=C(CSc1ccc(Cl)cc1)Nc1ccccc1Oc1ccccc1,-0.2,3,17,2,5,1939,-5
CC1(C)NC(=O)N(CC(=O)Nc2cc(C(F)(F)F)cc(C(F)(F)F)c2)C1=O,3.1,-6,-7,-1,-6,5585,11
COC(=O)c1c(NC(=S)Nc2ccc(F)cc2[N+](=O)[O-])sc2c1CCCCC2,10,16,4,14,-23,10521,18
O=C(Nc1cc(S(=O)(=O)N2CCOCC2)ccc1O)c1ccc(S(=O)(=O)N2CCCCC2)cc1,3.0,-9,4,5,-20,?,·
Cc1ccccc1N1C(=O)CC1(C#N)c1ccc(OCc2ccccc2)cc1 (stereo not given),-6.9,5,-14,38,-20,2732,-3
Cc1ccc(OCCOC(=O)Cn2nc(C)c([N+](=O)[O-])c2C)cc1,1.4,2,10,2,-31,3740,1
COc1cc(C(C)=NNC(=O)c2ccncc2)ccc1O,1.8,·,·,4,-17,3571,·
O=C(NCc1ccccc1)C1CCN(c2nc(-c3ccccc3)nc3c2CCC3)CC1,-9.0,-3,7,-7,-16,5604,4
COc1ccc(CCN=C2SCC(=O)N2C)cc1OC,5.7,4,2,2,-3,10366,-5
COC(=O)CC1=C(C(=O)OC)C(c2ccc3c(c2)OCO3)C(C#N)=C(N)O1 (stereo not given),3.2,17,5,8,-17,5007,-5
CCOc1ccc(C2=Nn3c(nnc3-c3ccc(OC)cc3)SC2)cc1,15,4,7,-16,3,17851*,19
CSc1nc(O)c(C(c2ccc(C)cc2)c2c(O)nc(SC)[nH]c2=O)c(=O)[nH]1,2.5,5,-11,10,-10,4108,8
CCOC(=O)c1cccc(NC(=O)CN2C(=O)C3C4C=CC(C4)C3C2=O)c1 (stereo not given),10,0,6,6,-9,3448,2
COc1cccc(Cn2c(OCC3CCCO3)nc3c2c(=O)n(C)c(=O)n3C)c1 (stereo not given),1.8,9,6,11,-15,2036,-6
NCCCC(=O)O,·,·,·,·,1,5744,16
CCSc1nnc2c(Cl)cc(Cl)cn12,-1.3,·,·,5,-20,5772,-8
COc1cc2c(cc1OC)CN(c1ccc([N+](=O)[O-])cc1C#N)CC2,8.5,12,9,-6,-5,2602,-11
O=C(CCc1c[nH]c2ccccc12)NC(Cc1ccccc1)C(=O)O (stereo not given),2.1,10,6,7,-14,3246,4
Cc1ccc(-c2nc(C#N)c(NCCCn3ccnc3)o2)cc1,-0.1,-4,-3,-7,-52,3389,2
CCOc1ccc(NC(=O)CN(C)C(=O)c2sccc2-c2ccccc2)cc1OCC,5.7,5,-9,16,-10,·,·
CC(/C=N/Nc1nnc(C)c(=O)[nH]1)=C\c1ccccc1,·,·,·,·,-70,10429,-8
COC(=O)c1cc(C)[nH]c2c(C)cc3nc4ccccc4c3c12,-14,9,5,-1,-27,4401,1
O=C(NCc1cccnc1)C1CC=CC2CCN(Cc3ccc(Cl)c(Cl)c3)C(=O)C21 (stereo not given),6.3,5,5,-10,·,·,·
# (listing goes on)
SMILES,Sa RN4220 lethal,Mtb hypoxia rep,Mtb hypoxia rep growth,Sa ugtP lethal,PrP UTR inh,Autofluor counter,BJeLR lethal
CCCCn1c(O)c(C(C)=Nc2ccc(C(=O)O)cc2)c(=O)[nH]c1=O,2.1,·,·,11,-8,3543,-18
CCc1oc2ccccc2c1C(=O)CCN1CCCCC1,5.8,-3,-5,23,-4,4077,-1
OCC[C@@H]1C[C@@H](O)[C@H](O)[C@@]2(Cc3ccccc3CO2)O1,·,·,·,·,-27,4065,10
c1ccc(CCCN2CCN(c3ccccn3)CC2)cc1,0.9,-2,1,4,-17,3855,-1
N#C/C(=C/c1ccc(-c2ccccc2[N+](=O)[O-])o1)C(N)=O,2.8,5,12,16,39,3692,-4
COc1ccc(/C=N/NC(=O)CSc2nnc(C)n2-c2ccccc2)c(OC)c1OC,·,·,·,·,-10,4746,-6
O=C(COC(=O)/C=C/c1cccs1)Nc1cccc(S(=O)(=O)N2CCCC2)c1,·,·,·,·,-6,2525,-1
COc1ccc(N2CCN(C(=O)CN(C)S(=O)(=O)c3cc(C)ccc3OC)CC2)cc1,5.7,-3,0,3,-61,3846,-1
CCN(Cc1ccccc1)C(=O)Cc1ccc(OC)c(S(=O)(=O)N2CCOCC2)c1,0.1,-1,3,-1,-28,5600,1
O=C(/C=C/c1cccc(C(F)(F)F)c1)OCC(=O)N1CCN(c2ccccc2)CC1,4.6,11,11,5,-11,3590,·
N#C/C(=C(/O)c1ccc(Cl)c([N+](=O)[O-])c1)c1nc2ccccc2[nH]1,4.1,-21,-5,-8,-21,4348,7
c1ccc(Nc2nc(N3CCNCC3)nc(N3CCOCC3)n2)cc1,-5.4,·,·,-1,-8,3740,-4
O=c1[nH]c2cc([N+](=O)[O-])c([N+](=O)[O-])cc2[nH]c1=O,0.1,-7,3,6,3,2471,1
COc1ccc(-c2cc(=O)[nH]c(N3CCN(Cc4ccccc4)CC3)n2)cc1,-0.3,8,6,0,-13,3216,-8
O=C(NCc1ccccc1)c1cnsn1,1.7,·,·,2,-10,7859,14
O=C(COC(=O)C1CCN(/C=C/C(=O)C(F)(F)F)CC1)Nc1ccccc1,3.1,7,0,3,-24,2009,-4
Cc1ccc(C2CC(c3cccs3)=NN2C(=O)CSc2nc(=O)n3cc(C)ccc3n2)cc1 (stereo not given),-1.7,11,4,1,-21,5471,-5
Oc1ccc2ccccc2c1C=Nc1ccc(N2CCOCC2)cc1,2.7,7,-1,2,·,·,-3
CC(C)(Oc1ccc(Br)cc1Cl)C(=O)Nc1ccon1,-1.7,-9,1,-7,-4,5251,-1
COc1ccc(NC(=O)CCC(=O)Nc2nnc(C(C)C)s2)cc1Cl,5.7,-2,-10,10,4,4249,-4
Cc1nn(C(C)C(=O)N2CCOCC2)c(C)c1[N+](=O)[O-] (stereo not given),1.8,9,0,11,-10,2729,6
O=C(Nc1nc(-c2ccc3c(c2)Cc2ccccc2-3)cs1)c1ccccc1,0.7,2,1,-6,-52,2588,-10
Cc1cnc(CN(C)C(=O)c2ccc3oc(Cc4ccccc4)nc3c2)[nH]1,-1.8,-8,-3,-3,-12,4934,3
CCn1c(C)nc2cc(C(=O)N/N=C/c3ccc(OC)cc3)ccc21,·,·,·,·,-11,3431,7
C/C(N)=C(/C#N)C(=O)CSc1cc(C)c2ccccc2n1,5.3,-1,-5,0,-22,3800,6
# The results go on:
SMILES,Sa RN4220 lethal,Mtb hypoxia rep,Mtb hypoxia rep growth,Sa ugtP lethal,PrP UTR inh,Autofluor counter,BJeLR lethal
C=CCC1NS(=O)(=O)OC2CCCC12 (stereo not given),8.2,21,4,4,-12,4353,-5
COc1ccc(CCNC(=O)c2noc3c2CCCC3)cc1OC,1.0,-6,8,-6,-8,21948*,-4
CN(C(=O)c1ccccc1C(=O)OCC(=O)NC(=O)NC(C)(C)C)C1CCCCC1,3.5,-12,6,-2,8,4416,4
N#C/C(C(=O)N1CCOCC1)=C1\Nc2ccccc2S1,1.8,1,10,-4,-28,20837*,8
COc1ccc(N(CC(=O)Nc2cccnc2)S(=O)(=O)c2ccccc2)cc1Cl,-0.1,4,10,11,-21,3621,5
CN(NC(=O)CN1C(=O)c2ccccc2C1=O)C1=NS(=O)(=O)c2ccccc21,2.7,-2,10,13,-17,2120,-8
O=C(NCc1ccco1)C1CCC(CNS(=O)(=O)c2cccc3cccnc23)CC1 (stereo not given),1.4,·,·,13,3,5652,6
COC(=O)CCC(=O)Nc1ccc(NC(C)=O)cc1,3.0,3,-6,12,-10,10053,-6
Cc1cccc(N2CN(Cc3cccnc3)CNC2=S)c1,6.1,2,0,10,0,2038,-4
Cc1cccc(NC(=O)Cn2c(=O)oc3ccccc32)n1,4.4,4,13,3,-9,6110,1
COCCCNc1oc(-c2ccccc2F)nc1C#N,1.1,·,·,1,-29,5375,-2
CC(=O)N1CCc2cc(C(=O)CN3CCN(C(=O)c4ccco4)CC3)ccc21,-3.6,13,11,1,·,·,-9
CC(=O)NC(c1ccc(C)cc1)c1cc(Cl)c2cccnc2c1O (stereo not given),·,·,·,·,0,4277,12
CCCCC1=CC2=C(c3ccco3)C(=O)C(C)(OC(=O)c3ccc(OC)cc3)C(=O)C2=CN1c1ccc(OC)cc1 (stereo not given),3.6,14,14,2,-14,3862,41
COc1ccc2[nH]c(=O)c(CN(C(C)=O)C3CCCCC3)cc2c1,2.0,8,5,5,8,7188,-6
COc1ccc(NC(=O)CC(C)CC(=O)NCc2ccc(F)cc2)c(OC)c1 (stereo not given),0.2,19,12,6,-13,3436,5
COc1ccccc1/C=N/NC(=S)Nc1cccnc1,·,·,·,·,-7,4589,-1
c1ccc(CSc2nncn2-c2ccccn2)cc1,9.8,5,4,1,-6,22351*,-12
C=CCSC1=C(C#N)C(c2ccccc2OC)CC(=O)N1 (stereo not given),6.1,·,·,4,-8,3687,8
Cc1ccc(CNC(=O)COC(=O)CCCOc2ccc(Cl)cc2Cl)cc1,-0.9,-12,-7,3,-40,2282,4
COc1ccc(-c2oc3ccc(-c4cc(OC)c(OC)c(OC)c4)cc3c2-c2ccc(OC)cc2)cc1,11,-5,-15,4,·,·,6
O=C(Nc1ccccc1C(=O)Nc1nnc(C(F)(F)F)s1)c1ccccc1Cl,88*,·,·,90*,-24,6203,9
COCCNC(=S)NCCc1ccc(Cl)cc1Cl,2.6,11,-3,-15,-22,5027,-2
Cc1c([N+](=O)[O-])cc(S(=O)(=O)Nc2ccncc2)cc1[N+](=O)[O-],3.5,14,26,7,24,4569,4
CCN(CC)C(=O)c1nn(Cc2ccccc2)c(=O)c2ccccc12,0.7,-1,-6,4,-6,6131,1
# More results follow.
SMILES,Sa RN4220 lethal,Mtb hypoxia rep,Mtb hypoxia rep growth,Sa ugtP lethal,PrP UTR inh,Autofluor counter,BJeLR lethal
CCOC(=O)C1CCCN(C(=O)c2sc3nc(-c4ccccc4)cn3c2C)C1 (stereo not given),3.3,5,9,-4,-4,5046,-2
O=C(NC(=S)Nc1ccccc1N1CCCCC1)c1ccccc1,-10,-1,-6,48,-7,1930,-13
C/C(=N\NC(=O)c1ccco1)c1cc(Cl)sc1Cl,·,·,·,·,-29,5079,2
O=C(O)c1nn(-c2ccccc2)nc1-c1nn(-c2ccccc2)nc1C(=O)O,3.4,-11,-2,-3,-3,4244,-12
COc1ccc(/C=N/n2c(N)c(S(=O)(=O)c3cccs3)c3nc4ccccc4nc32)cc1OC,·,·,·,·,-7,9737,-4
CSc1ccccc1NC(=O)CN(Cc1ccccc1)S(C)(=O)=O,5.6,12,15,1,-20,9515,3
COc1ccc(NC(=O)CSCC(=O)Nc2nnc(CC(C)C)s2)cc1,1.7,5,-5,7,-15,·,-4
CC1(C)CC(=O)C(C(c2cccc([N+](=O)[O-])c2)C2C(=O)CC(C)(C)CC2=O)C(=O)C1,2.9,0,-2,9,-14,9179,10
O=C1CN(C(=O)CSc2nc3ccccc3c(=O)n2CCCN2CCOCC2)c2ccccc2N1,-3.1,-13,-8,-7,-20,5207,-4
N#Cc1ccc(S(=O)(=O)NC2CC2)cc1,-0.3,-7,-6,-2,1,4345,8
O=C(CN1CCN(Cc2ccccc2)CC1)NN=Cc1ccccc1F,2.3,-2,-8,2,·,·,·
CC(NC(=O)Cn1cccc1)c1ccccc1 (stereo not given),-1.8,-2,-1,-6,-18,3744,3

# Complete entries as entered above. Screens in order: Sa RN4220 lethal, Mtb hypoxia rep, Mtb hypoxia rep growth, Sa ugtP lethal, PrP UTR inh, Autofluor counter, BJeLR lethal
# O=C(O)c1nn(-c2ccccc2)nc1-c1nn(-c2ccccc2)nc1C(=O)O reads 3.4, -11, -2, -3, -3, 4244, -12
# COc1ccc(/C=N/n2c(N)c(S(=O)(=O)c3cccs3)c3nc4ccccc4nc32)cc1OC reads ·, ·, ·, ·, -7, 9737, -4
# O=C1CN(C(=O)CSc2nc3ccccc3c(=O)n2CCCN2CCOCC2)c2ccccc2N1 reads -3.1, -13, -8, -7, -20, 5207, -4

# 2 successive entries from above:
SMILES,Sa RN4220 lethal,Mtb hypoxia rep,Mtb hypoxia rep growth,Sa ugtP lethal,PrP UTR inh,Autofluor counter,BJeLR lethal
N#Cc1ccc(S(=O)(=O)NC2CC2)cc1,-0.3,-7,-6,-2,1,4345,8
O=C(CN1CCN(Cc2ccccc2)CC1)NN=Cc1ccccc1F,2.3,-2,-8,2,·,·,·
